# Screens (PubChem BioAssay)
# T cruzi inh – blocks replication of Trypanosoma cruzi; T. cruzi beta-gal in NIH3T3, luminescence, 90 h; inhibition, % (concentration not given with the values); 300,000 tested, 1.4% active;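 active = mean inhibition across valid replicates above about 55%, limit read from the data; inconclusive = mean below that limit but half or more replicates reach it; inactive = mean below it, under half of replicates reach it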;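 also: signal also drops with host cell toxicity which is not excluded here; 0% = plate median of DMSO wells and 100% = zero luminescence signal; higher percent means less beta-gal luminescence so fewer parasites; stock transfer was 50 nL into about 50 µL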
# Vif A3G – inhibitors of Vif binding to APOBEC3G peptide, primary screen, biochemical, TR-FRET, GST-Vif 1-94, biotin-A3G peptide, dose response retest (AID 1117319); inhibition, %; hits with a dose series show IC50 in µM; TR-FRET GST-Vif / biotin-A3G peptide binding; higher % means a stronger effect; test concentration not given here; strong numbers were not always called active; 260,000 tested, 0.57% active;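 active = above the screen mean plus three standard deviations and confirmed in dose response; inconclusive = results disagree or hit not tested in dose response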;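 also: Vif residues 1-94 fused to GST binding biotinylated APOBEC3G peptide 110-148; 0% = full assay without inhibitor and 100% = GST in place of GST-Vif; retest series ran down from 100 µM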
# Beta apoptosis – blocks beta cell apoptosis. INS-1E cytokine-induced death, ATP luminescence, 48 h; percent of positive-control rescue, neutral wells zero. protection from apoptosis, % (no concentration beside the values). 300,000 tested, 0.8% active;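 active = all replicates at 75% or more, or half of them and the mean; inconclusive = half reach 75% but not the mean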;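 also: 0% = cytokine-treated negative control wells and 100% = positive control rescue; higher means more ATP so stronger rescue from cytokine killing; wells of about 40 µL received 100 nL stock; the first replicate is given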
# RanGTP-Imp inh – disruptors of Ran-importin-beta complex formation – biochemical, FRET, CFP-Ran, YFP-importin-beta, homogeneous, primary screen | AID 2216 | 300,000 tested, 1.1% active | inhibition, % (no concentration beside the values) | cell-free CFP-Ran/YFP-importin-beta FRET ratio;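 active = most replicates above 15%; inconclusive = exactly half above 15%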;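 also: 0% = DMSO wells and 100% = Ran loaded with GDP instead of GTP; wells of about 40 µL received 100 nL stock; the first replicate is given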
# Calb FLC – C. albicans growth modulation with fluconazole | growth inhibition, % (test concentration not listed) | AID 1979 | 300,000 tested, 0.57% active | C. albicans CaCi-2 (fluconazole-resistant clinical isolate) + fluconazole, Alamar Blue growth, 48 h;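 active = most replicates above 75%; inconclusive = exactly half above 75%; inactive = most below 75%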;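 also: all wells also contain fluconazole at 8 µg/ml as a sub-toxic cotreatment; 0% = median of DMSO wells and 100% = median of geldanamycin control wells; wells of about 8 µL received 7.5 nL stock; the first replicate is given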
# Ecoli rRNA inh – selective bacterial rRNA inhibition in E. coli. E. coli WT GFP vs humanized-ribosome RFP mutants, fluorescence, 24 h; active compounds read low; DMSO median 0, no signal -100. GFP signal change (wild-type ribosome), % (test concentration not listed). 350,000 tested, 1.6% active;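 active = significant combined selectivity score with lowered wild-type GFP, culture density cut under 30%, mutant RFP and density less affected; inactive = any of these conditions unmet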; also: one replicate is shown; some compounds called inactive have numbers as strong as hits
# AF4-AF9 inh – inhibitors of human MLL-AF4/AF9 interaction | inhibition, % at 10 µM | AlphaScreen, biotin-AF4 peptide binding to FLAG-AF9 | 350,000 tested, 0.47% active | AID 651704;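 active = every replicate reaching a set inhibition limit, whatever the replicate mean, cut at about 25% in these data; inconclusive = mean inhibition reaches that limit but some replicates miss it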;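 also: 0% = plate neutral control median and 100% = total signal loss; the record names both 10 and 1 µM as test concentration; the first replicate is given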
# Target sequence (P42568 whole entry, looked up): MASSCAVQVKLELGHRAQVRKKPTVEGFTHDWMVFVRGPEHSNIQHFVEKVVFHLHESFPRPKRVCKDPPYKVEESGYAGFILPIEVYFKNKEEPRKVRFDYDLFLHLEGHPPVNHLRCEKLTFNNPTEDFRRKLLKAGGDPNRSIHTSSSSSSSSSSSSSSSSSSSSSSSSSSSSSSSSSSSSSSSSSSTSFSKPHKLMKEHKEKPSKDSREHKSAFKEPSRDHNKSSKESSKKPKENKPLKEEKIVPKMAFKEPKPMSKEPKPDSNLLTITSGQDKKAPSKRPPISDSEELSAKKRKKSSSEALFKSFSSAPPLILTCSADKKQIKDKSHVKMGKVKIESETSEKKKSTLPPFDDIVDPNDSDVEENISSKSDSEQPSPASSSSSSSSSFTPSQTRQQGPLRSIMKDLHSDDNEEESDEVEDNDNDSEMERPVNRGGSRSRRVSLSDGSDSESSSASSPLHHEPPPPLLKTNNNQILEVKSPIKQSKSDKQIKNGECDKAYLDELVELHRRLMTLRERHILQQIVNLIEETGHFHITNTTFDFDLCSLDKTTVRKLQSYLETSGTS
# Bfl-1 A1 inh – inhibitors of the anti-apoptotic protein A1, read as caspase activation; AID 2462; caspase activation, % (concentration not given with the values); MEF A1-2A-BIM cells, Caspase-Glo 3/7 luminescence, 3 h; percent of clofoctol response, vehicle zero; 330,000 tested, 0.066% active;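 active = over half of replicate activation scores above 10%, or exactly half above 10 with the replicate mean above 10; inconclusive = replicate mean below 10 yet half the replicates above 10; inactive = over half of replicates below 10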;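 also: wells of about 30 µL received 50 nL stock; many hits fall short of the cut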
# Ecoli rRNA inh OD600 – recorded beside Ecoli rRNA inh, whose call it bears; OD600 change, %; measured here: OD600 growth;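 optical density of the mix in the first replicate; 0 = DMSO median and -100 = no signal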
# Ecoli rRNA inh RFP – also measured in Ecoli rRNA inh; calls as there; RFP signal change, %; measured here: RFP humanized mutant strains;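 first replicate; 0 = DMSO median and -100 = no signal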
# An asterisk follows results filed as active; ? = inconclusive; / = no result given; & = joins results of further samples. This is a subset; count on the stated rates, not on these rows.
SMILES,T cruzi inh,Vif A3G,Beta apoptosis,RanGTP-Imp inh,Calb FLC,Ecoli rRNA inh,Ecoli rRNA inh OD600,Ecoli rRNA inh RFP,AF4-AF9 inh,Bfl-1 A1 inh
COc1ccc(-n2nnnc2SCC(=O)Nc2c(C)n[nH]c2C)cc1,/,-0.8%,1.1,/,/,3.7,1.7,-2.8,-2.5,-0.5
Cc1cc(C)cc(N(CCC#N)C(=O)COC(=O)C2CCN(c3ccc(C(F)(F)F)cn3)CC2)c1,-1.4,5.2%,-1.2,2.6,/,-0.4,-0.3,-0.4,-2.1,1.8
O=C(c1cccn(Cc2cccc(Cl)c2)c1=O)N1CCOCC1,-11.2,7.1%,-3.5,?,-6.4,/,/,/,/,0.2
CN(C)C(=S)NC1CCS(=O)(=O)C1 (stereo unspecified),4.5,/,1.1,3.4,-6.1,6.3,11.8,0.2,-2.2,1.0
CC(C)CCNC(=O)COC(=O)c1cc(Br)c(Br)s1,-9.2,7.3%,2.5,1.0,-5.9,-5.0,4.2,-3.3,2.4,1.1
Cc1cccc(C)c1NC(=O)C1C2C=CC(C2)C1C(=O)NCc1ccccn1 (stereo unspecified),-18.1,4.6%,1.7,-5.8,17.9,29.9,16.8,8.0,-76.1,-0.1
O=C(NCCCc1ccccc1)c1cccs1,2.0,16.8%,3.1,-2.1,-9.7,-7.1,-0.5,-5.0,1.2,0.6
O=C(NCc1cccs1)NC1CCCCC1,-13.3,-11.9%,-0.5,-1.6,-4.1,/,/,/,/,-0.6
CCOCCCNC(=O)Cn1ncc2c(=O)oc3ccccc3c21,-9.7,-3.2%,2.1,2.9,1.4,-1.1,11.5,-5.6,-3.4,1.4
N#Cc1ncc(Cc2ccccc2)nc1C#N,24.1,19.8%,-6.0,3.1,-2.6,-0.6,6.5,0.0,1.4,1.5
CCCCNS(=O)(=O)c1ccc(OC)c(C)c1,-5.0,-3.4%,-3.2,29.6,-0.6,/,/,/,/,0.2
CN1C(=S)SC(C)(C)C1N(O)C(=O)Nc1ccc(Cl)cc1 (stereo unspecified),2.2,/,-1.5,-2.0,-0.9,-51.6,-77.6,-18.6,-0.6,0.2
CCCn1c(CCC(=O)O)ccc1-c1ccccc1,-5.7,/,-5.8,0.2,30.3,-10.0,-13.0,1.4,-1.3,0.0
Cn1c(CN2CCCC2)nc2cc(NC(=O)c3ccc(Cl)cc3)ccc21,14.1,11.1%,5.4,6.6,28.0,6.6,9.8,7.0,-0.9,0.2
COc1cccc(/C=N/Nc2ncc(C)c(=O)[nH]2)c1OC,-5.1,-7.7%,2.1,-1.1,-1.4,15.0,7.5,-1.7,-4.6,1.0
O=C(Nc1ccc(F)cc1F)c1c(C(F)(F)F)ccnc1Oc1ccccc1,1.9,-2.0%,0.7,-2.0,-2.5,/,/,/,-0.3,0.8
CCCC1=C/C(=C/c2ccc(-c3ccccc3OC)o2)C(=O)O1,-16.2,?,4.1,-1.7,-5.5,7.6,5.2,23.6,4.4,-3.0
C=CCNC(=O)c1c(N)n(-c2cccc(S(N)(=O)=O)c2)c2nc3ccccc3nc12,/,3.4%,-5.0,/,12.0,/,/,/,/,-0.1
CN(C)S(=O)(=O)c1ccc(NC(=O)c2ccc3ncsc3c2)cc1,4.4,/,-0.5,-1.3,5.6,/,/,/,/,0.5
Cc1cc(C)n2nc(C(=O)OCCOc3cccc(Br)c3)nc2n1,-19.0,-0.2%,-4.9,-0.8,2.3,/,/,/,/,-1.5
O=C(CSCc1ccccc1)NCc1ccc2c(c1)OCO2,-14.7,?,-3.5,1.0,-1.6,/,/,/,/,-0.8
COC(=O)c1c(-c2ccccc2)c[nH]c1C,6.1,-10.9%,/,4.5,23.9,5.5,19.2,13.5,3.5,-0.7
CCOc1cc(C2NC(=O)N(C)C(C)=C2[N+](=O)[O-])ccc1OC(C)=O (stereo unspecified),7.6,3.2%,3.7,-0.6,0.7,-1.3,0.7,0.2,-6.3,0.4
O=C(NCc1cccs1)c1ccc(CS(=O)Cc2ccccc2Cl)o1 (stereo unspecified),-6.8,-0.7%,-2.2,0.3,-15.7,-5.7,-3.8,-4.1,-0.1,0.7
COc1ccc(OC)c(NC(=O)CSc2nnc(Cc3cccn3C)n2-c2ccc(F)cc2)c1,8.8,27.5%&0.9%,1.3,0.8,3.1,3.0,-1.5,0.1,11.3,-0.4
OC1=C(O)c2nc3cc(C(F)(F)F)ccc3nc21,-21.9,15.6%,2.2,-0.3,-5.0,/,/,/,-5.9,-0.5
O=C(c1cccc(C(F)(F)F)c1)C1CCCN(Cc2cccn2-c2ccccn2)C1 (stereo unspecified),36.5,10.3%,/,2.3,61.7,-24.8,-25.4,5.4,12.5,-0.4
Cc1cccc(Nc2nnc(SCC(=O)Nc3cccc(S(=O)(=O)N4CCCCC4)c3)s2)c1,-4.3,-3.0%,0.1,10.3,-6.6,/,/,/,/,-1.1
CC1=C(C(=O)Nc2ccccc2C(=O)NC2CCC(C)CC2)SCCO1 (stereo unspecified),8.1,12.2%,3.3,1.8,19.3,1.5,-3.3,-2.1,-1.8,0.4
O=[N+]([O-])c1ccc(OCCCCN2CCCCC2)cc1,26.4,/,-8.4,2.6,-12.0,/,/,/,/,0.2
CCN1CCN(c2cc(C)c3cc(NC(=O)c4cccc(OC)c4)ccc3n2)CC1,21.8,2.0%,-3.6,4.1,-15.8,2.8,-0.6,-1.7,4.9,-0.5
COc1ccc(C(=O)C2CCCN(C(=O)C3=CCCC3)C2)cc1OC (stereo unspecified),0.1,-0.4%,-8.8,-2.1,0.9,18.4,9.9,2.0,-1.6,0.0
CCc1oc2ccccc2c1C(=O)c1cc(Br)c(O)c(Br)c1,-7.9,16.5%&18.4%,-3.4,5.8,/,/,/,/,-2.7,1.3
COc1ccc(S(=O)(=O)N2CCN(CC(=O)Nc3cc(OC)cc(OC)c3)CC2)cc1,10.9,22.4%,-10.4,0.1,-9.8,/,/,/,/,0.3
O=C(CC1C[C@H](C(=O)N2CCCCC2)[C@@]2(CCc3ccccc3)c3[nH]c4ccccc4c3CCN2C1=O)NCCC1=CCCCC1 (stereo partly specified),/,-3.1%,22.1,/,/,5.1,12.6,-1.3,1.1,2.7
COc1ccc(-c2cc(C(=O)O)[nH]n2)cc1OC,11.3,5.6%,-6.6,-0.7,-4.7,7.6,9.6,2.4,/,-0.7
Cn1nc(-c2ccccc2F)c2cc(C(=O)Nc3ccc4c(c3)OCCO4)sc21,21.8,-1.8%,49.7,0.5,40.7,/,/,/,/,1.1
COc1cccc(N2CC(C(=O)Nc3ccc(F)cc3)CC2=O)c1 (stereo unspecified),-17.5,/,-1.6,0.5,-9.8,1.9,3.1,-0.2,-0.5,0.2
Cc1ccc2nc(SCC(=O)Nc3cccc(S(=O)(=O)NC4=NCCCCC4)c3)[nH]c2c1,4.6,4.4%,-3.0,1.4,8.9,-27.5,2.2,20.1,-3.4,0.5
CN(C)C(=O)c1cn(CCC#N)nc1-c1ccc2ccccc2c1,-9.2,/,-4.1,3.5,6.5,5.6,3.0,2.7,3.7,0.0
CN(C)c1cccc(Oc2nc3c(c(=O)n(C)c(=O)n3C)n2C)c1,-1.1,/,1.1,-2.1,-6.2,3.8,5.7,10.5,3.8,0.3
COc1ccc(CC(=O)NC(C)C2COc3ccccc3O2)cc1OC (stereo unspecified),-14.4,-8.3%,-5.0,-0.5,13.1,2.1,-3.2,-0.5,-1.4,-1.1
Cc1cc(OCc2nc3ccccc3s2)ccc1N,5.3,/,-4.5,7.2,-0.1,/,/,/,3.6,-6.3
O=S(=O)(Nc1ncccn1)c1ccc(NC(=S)NCc2ccco2)cc1,-10.6,-4.0%,/,-0.3,-3.0,-55.4,-78.7,-19.6,-3.9,1.2
